Ecoli rRNA inh = inhibitors of bacterial rRNA selective over humanized ribosomes; E. coli WT GFP vs humanized-ribosome RFP mutants, fluorescence, 24 h; active compounds read low; DMSO median 0, no signal -100; GFP signal change (wild-type ribosome), % (concentration not given with the values); 1.6% of 350,000 active; AID 720706;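 active means significant combined selectivity score with lowered wild-type GFP, culture density cut under 30%, mutant RFP and density less affected; inactive means any of these conditions unmet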; further: one replicate is shown; some compounds called inactive have numbers as strong as hits
T cruzi repl = T. cruzi replication inhibition. T. cruzi beta-gal in NIH3T3, luminescence, 90 h. inhibition, % (no concentration beside the values). 1.4% of 300,000 active. AID 1885;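 active means mean inhibition across valid replicates above about 55%, limit read from the data; inconclusive means mean below that limit but half or more replicates reach it; inactive means mean below it, under half of replicates reach it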;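 further: signal also drops with host cell toxicity which is not excluded here; 0% = plate median of DMSO wells and 100% = zero luminescence signal; higher percent means less beta-gal luminescence so fewer parasites; stock transfer was 50 nL into about 50 µL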
ALR H2O2 inh = blocks human ALR sulfhydryl oxidase activity. P55789. purified ALR, DTT oxidation, H2O2 HRP-luminol luminescence. inhibition, % (no concentration beside the values). 3.8% of 290,000 active;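 active means mean and each replicate at 75% or more; inconclusive means only one of the two met; inactive means neither met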;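 further: stock transfer was 7.5 nL into about 7.5 µL; 0% = neutral wells and 100% = wells with inactivated enzyme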
Target sequence (P55789 whole entry, looked up): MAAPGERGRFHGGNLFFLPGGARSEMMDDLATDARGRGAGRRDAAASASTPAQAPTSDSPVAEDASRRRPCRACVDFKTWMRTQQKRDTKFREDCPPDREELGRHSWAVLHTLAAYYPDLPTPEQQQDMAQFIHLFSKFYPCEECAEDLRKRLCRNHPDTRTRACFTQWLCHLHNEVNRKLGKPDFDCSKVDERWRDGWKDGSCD
FGF22 binding = shifts melting point of recombinant human FGF22. Q9HCT0. recombinant FGF22 thermal shift, SYPRO orange fluorescence; percent of sucrose octasulfate shift, DMSO zero. calls only at 9.99 µM. 1.5% of 340,000 active. AID 651658;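 active means melting point raised past a set limit in the mean and every replicate; inconclusive means no clear call; three in four hits are not shown here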
Target sequence (Q9HCT0 whole entry, looked up): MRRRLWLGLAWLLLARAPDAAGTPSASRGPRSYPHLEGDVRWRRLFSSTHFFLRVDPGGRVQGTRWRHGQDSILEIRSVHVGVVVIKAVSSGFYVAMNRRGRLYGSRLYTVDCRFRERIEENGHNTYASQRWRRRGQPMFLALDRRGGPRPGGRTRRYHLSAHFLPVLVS
RanGTP-Impb inh = disruptors of Ran-importin-beta complex formation – biochemical, FRET, CFP-Ran, YFP-importin-beta, homogeneous, primary screen | 1.1% of 300,000 active | cell-free CFP-Ran/YFP-importin-beta FRET ratio | inhibition, % (no concentration beside the values);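 active means most replicates above 15%; inconclusive means exactly half above 15%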;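 further: 0% = DMSO wells and 100% = Ran loaded with GDP instead of GTP; wells of about 40 µL received 100 nL stock; the first replicate is given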
Calb FLC = C. albicans growth modulation with fluconazole | 0.57% of 300,000 active | growth inhibition, % (concentration not given with the values) | C. albicans CaCi-2 (fluconazole-resistant clinical isolate) + fluconazole, Alamar Blue growth, 48 h | AID 1979;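 active means most replicates above 75%; inconclusive means exactly half above 75%; inactive means most below 75%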;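 further: all wells also contain fluconazole at 8 µg/ml as a sub-toxic cotreatment; 0% = median of DMSO wells and 100% = median of geldanamycin control wells; wells of about 8 µL received 7.5 nL stock; the first replicate is given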
AF4-AF9 inh = inhibitors of human MLL-AF4/AF9 interaction. 0.47% of 350,000 active. AlphaScreen, biotin-AF4 peptide binding to FLAG-AF9. inhibition, % at 10 µM. AID 651704;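 active means every replicate reaching a set inhibition limit, whatever the replicate mean, cut at about 25% in these data; inconclusive means mean inhibition reaches that limit but some replicates miss it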;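 further: 0% = plate neutral control median and 100% = total signal loss; the record names both 10 and 1 µM as test concentration; the first replicate is given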
Target sequence (P42568 whole entry, looked up): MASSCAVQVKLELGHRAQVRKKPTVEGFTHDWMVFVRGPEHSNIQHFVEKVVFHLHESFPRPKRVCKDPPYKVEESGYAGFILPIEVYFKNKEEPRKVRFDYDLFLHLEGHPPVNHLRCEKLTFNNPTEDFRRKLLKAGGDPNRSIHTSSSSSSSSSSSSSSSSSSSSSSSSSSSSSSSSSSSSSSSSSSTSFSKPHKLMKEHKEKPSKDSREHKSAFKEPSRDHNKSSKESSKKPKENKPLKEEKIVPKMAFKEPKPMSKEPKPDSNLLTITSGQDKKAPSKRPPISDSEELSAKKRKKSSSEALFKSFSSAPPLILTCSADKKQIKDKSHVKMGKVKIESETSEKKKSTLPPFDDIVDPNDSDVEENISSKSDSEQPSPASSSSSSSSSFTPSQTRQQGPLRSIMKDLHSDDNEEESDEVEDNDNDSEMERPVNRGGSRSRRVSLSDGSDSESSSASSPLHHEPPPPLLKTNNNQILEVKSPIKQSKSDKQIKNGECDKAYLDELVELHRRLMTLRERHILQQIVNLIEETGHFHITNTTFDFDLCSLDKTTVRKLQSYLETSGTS
Beta apoptosis = beta cell apoptosis inhibition; INS-1E cytokine-induced death, ATP luminescence, 48 h; percent of positive-control rescue, neutral wells zero; protection from apoptosis, % (no concentration beside the values); 0.8% of 300,000 active;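 active means all replicates at 75% or more, or half of them and the mean; inconclusive means half reach 75% but not the mean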;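 further: 0% = cytokine-treated negative control wells and 100% = positive control rescue; higher means more ATP so stronger rescue from cytokine killing; wells of about 40 µL received 100 nL stock; the first replicate is given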
Ecoli rRNA inh OD600 = further read-out of Ecoli rRNA inh, marked with its call; OD600 change, %; measured here: OD600 growth;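 optical density of the mix in the first replicate; 0 = DMSO median and -100 = no signal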
Ecoli rRNA inh RFP = second read-out of Ecoli rRNA inh, no call of its own (marks repeat the call); RFP signal change, %; measured here: RFP humanized mutant strains;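 first replicate; 0 = DMSO median and -100 = no signal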
The depositor's hits bear a star; i = inactive; ? = inconclusive; / = no result given. Not all compounds are listed; count on the stated rates, not on these rows.

SMILES	Ecoli rRNA inh	Ecoli rRNA inh OD600	Ecoli rRNA inh RFP	T cruzi repl	ALR H2O2 inh	FGF22 binding	RanGTP-Impb inh	Calb FLC	AF4-AF9 inh	Beta apoptosis
COC(=O)Cn1c(=NC(=O)c2nc3ccccc3s2)sc2cc(S(N)(=O)=O)ccc21	/	/	/	10	-6	/	0.1	11	/	47
CC(=O)c1cc(F)c(N2CCN(C(=O)C(C)(C)C)CC2)cc1C	/	/	/	0	-1	/	-1.5	3	/	-3
O=C(NC1CCCCCCC1)c1cc([N+](=O)[O-])ccc1Cl	-4	-1	-1.0	-4	5	i	1.2	-12	-4.1	8
CCOC(=O)CSc1ccc(C(=O)NCCCN2CCOCC2)cc1[N+](=O)[O-]	1	10	-1.2	11	-11	i	-1.9	-2	-1.5	-5
O=C1CC(N2CCN(c3ccccc3Cl)CC2)C(=O)N1c1cccc(F)c1 (centres undefined)	/	/	/	-6	0	/	0.0	-10	/	0
CCN(CC)CCN(C(=O)c1cccc(N2C(=O)CCC2=O)c1)c1nc2cc3c(cc2s1)OCO3	13	-2	-1.8	48	26	i	-3.4	-8	2.7	5
C=CCn1cccc(C(=O)Nc2ccc(OCC)cc2)c1=O	-3	-8	-3.0	9	11	i	0.8	-32	1.6	-1
Cc1ccc([N+](=O)[O-])cc1NC(=O)Nc1onc(C)c1C	12	14	0.2	8	5	i	2.4	-1	-0.6	8
NC(N)=Nc1nc2ccccc2o1	7	5	0.2	8	3	i	2.1	-6	1.8	0
COc1cc(CN(C)C)cc(C=O)c1O	/	/	/	8	63	/	-0.2	-13	/	-12
O=C(/C=C/c1ccccc1)NC(=S)Nc1cccnc1	19	12	3.2	4	-1	/	3.1	?	/	-6
CCC(C)C(NC(=O)OC(C)(C)C)C(=O)NCc1ccco1 (centres undefined)	/	/	/	5	1	/	-0.3	-6	/	4
O=C(O)c1ccc(N/N=C/c2ccc3ncccc3c2)cc1	/	/	/	-2	22	/	1.1	6	/	-3
O=C(C1=C(O)C(=O)N(CCCn2ccnc2)C1c1cccc(Br)c1)c1ccco1 (centres undefined)	6	2	-0.2	-8	8	i	3.8	10	-2.4	-3
O=C(/C=C/c1ccccc1)NC(=S)NNC(=O)c1ccco1	/	/	/	-1	25	/	6.8	-1	/	3
Cc1ccc(Cn2c(C3CCCN3c3nc(-c4ccc(F)cc4)cs3)nc3cc(C(F)(F)F)ccc32)cc1 (centres undefined)	6	8	2.6	26	-22	i	?	-16	-18	10
Cc1ccc(CN2CCN(CC(=O)N/N=C/c3ccc(C)o3)CC2)cc1	/	/	/	7	-7	i	2.8	-2	1.2	-4
O=C(OC(C(=O)NCC1CCCO1)c1ccc(F)cc1)c1cccs1 (centres undefined)	/	/	/	-15	-2	/	1.6	-8	/	-2
CC(C)c1ccc(OCc2ccc(C(=O)N3CCCC3)o2)cc1	-42	-68	-18	10	4	i	0.2	3	1.0	0
COc1ccc(CNC(=O)COC(=O)c2cnccn2)cc1	/	/	/	-6	-4	/	1.8	-15	/	-9
CN(C)C(=O)CSc1nc(-c2ccccc2)nc2c1CCCC2	/	/	/	33	2	/	5.2	6	/	-4
Cc1cc(C(=O)NNC(=O)NC(C)C)no1	8	1	2.9	-36	15	i	1.3	1	24	-3
O=C(N/N=C/c1ccccc1F)c1cccc(NC(=O)c2ccccc2Cl)c1	-9	-9	1.0	-13	3	i	3.3	-13	-0.2	-9
O=C(Nc1ccc(N2CCOCC2)cc1)c1cccnc1	/	/	/	0	-1	/	-0.7	-3	/	5
O=C(NCc1cccnc1)Nc1ccc(F)cc1F	/	/	/	1	-2	/	2.2	-6	/	1
Cc1[nH]c(=O)c(C(=O)c2ccccc2O)cc1C(=O)O	9	12	1.4	-2	4	i	3.4	-7	-2.1	/
CCOc1ccc2c(c1)C(C)=CC(C)(C)N2C(=O)Nc1ccccc1F	2	0	0.6	-11	-86	i	-5.5	31	17	-1
Cc1cccc(-n2c(Cc3ccccc3)n[nH]c2=S)c1	-2	-4	-0.4	-1	5	i	?	11	-18	-3
CN(CC(=O)Nc1ccc(Cl)c(C(F)(F)F)c1)C(=O)CCCc1nc2ccccc2c(=O)[nH]1	9	5	3.6	/	3	i	/	/	-2.0	-5
Cc1ccc(C)c(NC(=O)CCN2C(=O)C3CC=CCC3C2=O)c1 (centres undefined)	10	8	-2.2	/	/	i	/	/	-6.7	-1
Cc1csc(NC(=O)CSc2ccc3nnc(CCNS(=O)(=O)c4ccccc4)n3n2)n1	/	/	/	-17	12	/	4.5	28	/	-10
CN=C(Nc1ccc(C(=O)OC)cc1)SC1CC(=O)N(c2ccccc2F)C1=O (centres undefined)	/	/	/	9	0	/	6.7	-4	/	-1
CC(=O)N(Cc1cc2cc(C)ccc2[nH]c1=O)c1cccc(C)c1C	0	-4	-1.1	10	/	i	3.1	5	0.5	5
O=C(COC(=O)c1ccccc1Nc1ccccc1)Nc1ccccc1	14	4	-2.7	-27	3	i	-4.3	2	-1.7	5
OC(COc1ccccc1)CN1CCOCC1 (centres undefined)	7	9	-9.0	-14	/	i	1.7	19	3.0	-8
CCN(C/C=C/c1ccccc1OC)Cc1ccccc1	9	0	-1.2	5	/	i	-4.3	-10	-4.0	-2
Cc1cc(=O)[nH]c(SCC(=O)Nc2nnc(CC(C)C)s2)n1	/	/	/	-10	-12	/	-1.5	10	/	0
CCC(C)NC(=O)COC(=O)c1ccc(Cl)cc1O (centres undefined)	9	11	2.1	-12	-4	i	-1.4	-2	-0.8	-4
CC1(C(=O)NC2CCCC2)CCC(=O)N1CCC1=CCCCC1 (centres undefined)	/	/	/	-20	-2	/	-1.5	-2	/	4
COc1cc(OC)c(C(=O)NCc2ccc3c(c2)OCO3)cc1OC	-8	-9	-5.2	-6	-2	i	0.0	-3	1.2	0
O=C(Nc1ccc(F)cc1F)NC1CC(=O)N(Cc2ccccc2)C1 (centres undefined)	/	/	/	-13	-13	/	0.2	-3	/	-2
O=C(Cn1nc(C(F)(F)F)cc1C1CC1)Nc1ccccc1F	3	5	1.6	0	9	i	0.7	-30	-4.6	-10
CCOC(=O)N1CCC(NC(=O)CSCc2nc(-c3ccc(OC)c(OC)c3)oc2C)CC1	/	/	/	4	98*	/	-3.8	-6	/	2
CCCCC(=O)N1CCN(c2ccc(OC)cc2[N+](=O)[O-])CC1	-7	-1	5.1	0	-10	i	3.9	-2	-13	-2
O=C(c1ccc(NC2=NC3CS(=O)(=O)CC3S2)cc1)N1CCN(C(=O)c2ccco2)CC1 (centres undefined)	7	7	-6.6	/	-4	i	/	/	3.2	-4

Random excerpt: three compounds from above
SMILES	Ecoli rRNA inh	Ecoli rRNA inh OD600	Ecoli rRNA inh RFP	T cruzi repl	ALR H2O2 inh	FGF22 binding	RanGTP-Impb inh	Calb FLC	AF4-AF9 inh	Beta apoptosis
CC1(C(=O)NC2CCCC2)CCC(=O)N1CCC1=CCCCC1 (centres undefined)	/	/	/	-20	-2	/	-1.5	-2	/	4
O=C(c1ccc(NC2=NC3CS(=O)(=O)CC3S2)cc1)N1CCN(C(=O)c2ccco2)CC1 (centres undefined)	7	7	-6.6	/	-4	i	/	/	3.2	-4
O=C(Nc1ccc(F)cc1F)NC1CC(=O)N(Cc2ccccc2)C1 (centres undefined)	/	/	/	-13	-13	/	0.2	-3	/	-2

(more compounds)
SMILES	Ecoli rRNA inh	Ecoli rRNA inh OD600	Ecoli rRNA inh RFP	T cruzi repl	ALR H2O2 inh	FGF22 binding	RanGTP-Impb inh	Calb FLC	AF4-AF9 inh	Beta apoptosis
Cn1cc(CN2CCc3ccccc3C2)c2ccccc21	4	1	0.0	1	-3	i	2.6	-13	6.5	-3
COc1cccc(NC(=O)CN(C)C(=O)CSc2nc3ccccc3s2)c1	-4	-39	-1.1	-6	-2	i	/	-1	9.3	-4
CCOC(=O)N/N=C/c1ccc(F)cc1	16	8	9.8	-12	16	i	-1.7	-9	-23	-4
O=C(CN1C(=O)c2cccc([N+](=O)[O-])c2C1=O)N1CCN(c2ccc(F)cc2)CC1	11	4	1.2	-16	2	i	-1.4	9	-0.1	-1
CC(=O)c1cccc(CN(C)CC2CCCN(CCc3ccccc3C)C2)c1 (centres undefined)	1	4	-0.8	49	1	i	-0.7	-4	8.3	-3
CN1CCN(S(=O)(=O)c2ccc(Nc3ccc(F)cc3)c([N+](=O)[O-])c2)CC1	2	-2	1.7	-2	-13	i	7.1	6	9.4	2
COc1ccc(/C=C(\NC(=O)c2ccco2)C(=O)NCc2ccco2)cc1	6	11	0.2	3	3	i	-1.1	1	-0.8	3
C=CCN(c1ccccc1Cl)S(=O)(=O)c1cc(C(=O)N2CCCC2)ccc1Cl	-33	-32	-11	?	-4	i	0.3	2	5.2	-1
O=C(COC(=O)c1ccc(O)cc1)Nc1cc(C(F)(F)F)ccc1Cl	-39	-58	-7.7	-6	-3	i	4.0	13	-3.9	-1
O=C(NC(=S)N(CCc1ccccc1)CCc1ccccc1)c1ccco1	/	/	/	39	/	/	3.2	-25	/	15
Cc1ccc(NC(=O)C2CCN(C(=O)NC3CCCCC3)CC2)cc1Cl	/	/	/	-5	-16	/	0.6	7	/	5
O=C1CSC(c2ccc3c(c2)OCO3)N1c1ccc(Oc2ccccc2)cc1 (centres undefined)	/	/	/	24	/	/	-0.1	3	/	-5
O=C(COC(=O)Cc1ccc(Cl)cc1)NC1CCCC1	7	7	-1.2	/	0	i	/	/	?	-2
CC(=O)Nc1ccc(S(=O)(=O)NCc2ccccn2)cc1	4	11	-4.6	14	/	i	-0.3	2	1.5	-2
CCN(CC)c1cccc(OCC(=O)N(C)CCC#N)c1	6	8	26	25	98*	/	13	1	/	-12
CC(C)n1nnnc1SCC(=O)NCCc1ccccc1	/	/	/	-3	-7	/	1.3	-8	/	6
CCN(C1CCCCC1)S(=O)(=O)c1ccc(S(=O)(=O)NCCc2ccncc2)cc1	/	/	/	?	-2	/	3.4	1	/	14
COC(=O)c1ccc(CN2CCN(Cc3ccccc3)C(CCO)C2)cc1 (centres undefined)	0	4	1.2	21	/	i	3.2	42	1.0	2
COC(=O)C1C(O)C(C)C(O)C(C)(O)/C=C\C=C(/C)C(=O)Nc2c(C)c(OC(C)=O)c3c(c2O)C(=O)C(C)=C2OCOC(=C23)/C(C)=C/C(C)(O)C(O)C(C)C1O (centres undefined)	7	20	5.5	-2	-46	i	-5.5	23	6.2	-10
COc1ccc([C@@H]2Sc3cc(OC)ccc3N(CCN(C(C)C)C(C)C)C(=O)[C@H]2OC(C)=O)cc1	/	/	/	37	0	/	-1.3	-11	/	/
CCOc1ccc(N(C(=O)c2snc(C(N)=O)c2N)C(C(=O)NCC2CCCO2)c2c[nH]c3ccccc23)cc1 (centres undefined)	-2	-3	4.7	-1	1	i	-3.9	25	10	15
CCCc1cc(C(=O)N2CCN(c3ccc(C(F)(F)F)cn3)CC2)sc1C	-9	-30	10	15	-33	i	-2.5	1	-6.7	1
O=c1[nH]cccc1-c1nc2ccccc2n1Cc1cccc(F)c1	4	7	1.9	-11	-6	i	4.1	-3	-11	-4

Bioassay records: PubChem BioAssay, Broad Institute
